# Mtb betalactam – beta-lactam sensitization of Mtb H37Rv, H37Rv | AID 434955, 2010 | 0.27% of 330,000 active | inhibition, % at 25 µM | M. tuberculosis H37Rv growth with meropenem, percent inhibition; hits of this screen are not shown here;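 active = about 74% or more and at least 40 points above the plate without the antibiotic, then above 30% in a dose series; inconclusive = first-round hits that could not be retested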;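 also: growth measured after seven days incubation then overnight dye step; 0% = bacteria only wells and 100% = bacteria with antibiotic; twin plates without the antibiotic show which effects depend on it; some results filed as inactive read as strong as hits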
# * = called active by the depositor; ? = inconclusive. A portion of the library; rates above refer to the full screens.
SMILES,Mtb betalactam
O=C(O)c1nn(CCOc2c(Cl)cccc2Cl)c(=O)c2ccccc12,0.7
O=C(c1cc(S(=O)(=O)N2CCOCC2)ccc1F)N1CCc2ccccc21,-1.4
Cc1ccc(NC(=O)Cn2c(=O)cnc3ccccc32)cc1S(=O)(=O)N1CCOCC1,3.3
C[C@]12CCC3C(CC[C@H]4C[C@@H](O)CC[C@]34C)C1C[C@@H](O)C2=O (stereo not given in full),4.3
O=S(=O)(NCC(c1ccco1)N1CCCCC1)c1ccccc1C(F)(F)F (stereo not given),-0.9
O=C(Cn1cc(C(F)(F)F)cc(Cl)c1=O)NCC1COc2ccccc2O1 (stereo not given),3.5
CN(CC(=O)Nc1ccccc1C(=O)NC1CC1)Cc1cccs1,-5.0
Cn1nc(C(=O)NCC(=O)Nc2ccc(F)c(F)c2F)c2ccccc2c1=O,-5.1
CC(Oc1ccc2c(-c3ccccc3)cc(=O)oc2c1)C(=O)N1CCOCC1 (stereo not given),-0.9
CC(OC(=O)CCN=C1NS(=O)(=O)c2ccccc21)C(=O)Nc1ccc(S(N)(=O)=O)cc1 (stereo not given),8.0

# For convenience, some entries already given.
SMILES,Mtb betalactam
O=C(O)c1nn(CCOc2c(Cl)cccc2Cl)c(=O)c2ccccc12,0.7
O=C(c1cc(S(=O)(=O)N2CCOCC2)ccc1F)N1CCc2ccccc21,-1.4
Cc1ccc(NC(=O)Cn2c(=O)cnc3ccccc32)cc1S(=O)(=O)N1CCOCC1,3.3
C[C@]12CCC3C(CC[C@H]4C[C@@H](O)CC[C@]34C)C1C[C@@H](O)C2=O (stereo not given in full),4.3
O=S(=O)(NCC(c1ccco1)N1CCCCC1)c1ccccc1C(F)(F)F (stereo not given),-0.9

# Continued:
SMILES,Mtb betalactam
CCCc1ccc2oc(C(=O)N3CCNC(=O)C3CC(=O)OC)c(C)c2c1 (stereo not given),?
CCOc1ccccc1OCCCNCc1ccccc1,3.8
Nc1c(C(=O)CSc2nnc(N3CCOCC3)n2-c2cccc(F)c2)c(=O)[nH]c(=O)n1C1CC1,-4.8
CCN(CC(=O)Nc1ccc(OC)cc1)C(=O)c1ccc(Cl)c(S(=O)(=O)N2CCCC2)c1,-4.4
CC1CN(C(=O)CSc2nc(N)cc(N)n2)CC(C)O1 (stereo not given),-4.9
CN(C)Cc1c(C(=O)N/N=C/C2CC=CCC2)nnn1-c1nonc1N (stereo not given),-2.6
CCN(c1ccccc1)S(=O)(=O)c1cccc(C(=O)NCc2ccccc2CN2CCOCC2)c1,-9.1
Cc1ccc(C(=O)Nc2ccc(S(=O)(=O)NC3=NCCCCC3)cc2)cc1S(=O)(=O)N1CCOCC1,1.4
O=C(Nc1ccc2c(c1)OCO2)c1ccccn1,-8.1
CCC(=O)c1ccc(OCC(=O)Nc2ccccc2N2CCOCC2)cc1,2.4
CC(=NNC(=O)Cn1ccc(C(F)(F)F)n1)c1ccc(-n2ccnc2)cc1,2.2
CCCn1c(=O)c(C(=O)Nc2c(C)n(C)n(-c3ccccc3)c2=O)c(O)c2ccccc21,-0.4
COc1cccc(CC(=O)OCC(=O)NC2CCCC2)c1,-0.1
Cc1ccc2nc(CCl)[n+]([O-])c(-c3ccccc3)c2c1,64.2
CN1C(=O)N(CC(=O)N2CCN(S(=O)(=O)/C=C/c3ccccc3)CC2)C(=O)C12CCCCC2,1.2
COc1ccc(CN2CCN(C(=O)c3cc(C4CC4)nn3-c3ccccc3)CC2)cc1F,2.6
COc1ccccc1C(C)NC(=O)c1ccc(NC(=O)CC2SC(N3CCCC3)=NC2=O)cc1 (stereo not given),-9.4
CN1CCN(S(=O)(=O)c2cccc(C(=O)Nc3sccc3C(N)=O)c2)CC1,6.9
CC[C@@H](C)[C@@H]1CN([C@@H](CN2CCC[C@H]2CN2C(N)=NC[C@@H]2Cc2ccccc2)C(C)C)C(=N)N1CCCC1CCCC1,100.1
CCCCCCc1c(C)c2ccc(OCC(=O)N3CCC[C@H]3C(=O)O)c(C)c2oc1=O,-1.3
COc1ccc(OC)c(NC(=O)COC(=O)CN2C(=O)NC3(CCCC3)C2=O)c1,-2.8
CC1CC(C)CN(C(=O)C(C)N2CCN(S(=O)(=O)c3ccccc3F)CC2)C1 (stereo not given),-7.7
CCOC(=O)[C@H]1[C@H]2COc3ccc(Br)cc3[C@@H]2N2C(=O)c3ccc(Cl)cc3NC(=O)[C@@]12C,88.0
CCSc1nnc(SCC(=O)NC2CCCCC2)s1,0.1
Cc1ccc(C(=O)N/C(=C\c2ccco2)C(=O)NCCN2CCOCC2)cc1C,?
CCN(C(=O)c1cccc(S(=O)(=O)N2CCc3ccccc32)c1)C1CCS(=O)(=O)C1 (stereo not given),-12.2
CCOc1ccc(C(=O)N(CC)CC(=O)Nc2ccc3c(c2)OCCO3)cc1,-9.8
COc1cc(F)c(C2=CC(=O)C[C@H](c3ccc4c(c3)OCO4)C2)cc1F,5.9
Cc1cc(C(=O)COC(=O)c2ccc(NC(=O)CC#N)cc2)c(C)n1-c1ccc(OC(F)F)cc1,0.8
Cc1ccc2nc(-c3cccc(SC4CCCCC4)c3)c(NC3CCCCC3)n2c1,1.2
O=C1C=C(c2cccc(O)c2)C[C@@H](c2ccc(F)cc2)C1,75.5
CC(=O)Nc1ccc(S(=O)(=O)N(CC(=O)NC2CC2)Cc2ccccc2)cc1,-7.5
COc1cc(-c2ccc3oc(-c4ccsc4)cc(=O)c3c2)cc(OC)c1OC,94.8
COCCn1c(C)cc(C(=O)COC(=O)/C=C/c2ccc(OC)cc2OC)c1C,-5.5
CN(C(=O)c1cccc(NC(=O)Cc2ccc([N+](=O)[O-])cc2)c1)C1CC1,1.5
COc1cc(S(=O)(=O)Nc2ccccc2C(=O)N2CCCCC2)ccc1NC(C)=O,4.1
O=C(COC(=O)Cn1[nH]c(=O)c2ccccc2c1=O)NNC(=O)c1ccccc1,-9.8
O=C(CSc1ccc(Cl)cc1)NC(=O)c1ccccc1,-0.1
COc1ccc(S(=O)(=O)N(C)C)cc1NC(=O)c1ccc2c(c1)OCCO2,6.2
Cc1ccccc1C(=O)Nc1cccc(C(=O)N/N=C/c2ccc3c(c2)OCO3)c1,-7.4

# Molecules from the list above that have a furan ring, fused or not (three):
SMILES,Mtb betalactam
O=S(=O)(NCC(c1ccco1)N1CCCCC1)c1ccccc1C(F)(F)F (stereo not given),-0.9
CCCc1ccc2oc(C(=O)N3CCNC(=O)C3CC(=O)OC)c(C)c2c1 (stereo not given),?
Cc1ccc(C(=O)N/C(=C\c2ccco2)C(=O)NCCN2CCOCC2)cc1C,?

# New compounds follow.
SMILES,Mtb betalactam
CC(C)c1ccccc1OCC(O)CN(CC(O)COc1cccc2ccccc12)C(C)C (stereo not given),100.1
O=C(N/C(=C\c1ccccc1)C(=O)N1CCOCC1)c1ccc(Br)o1,-1.1
NS(=O)(=O)c1ccc(CCNC(=O)COC(=O)C2COc3ccccc3O2)cc1 (stereo not given),-1.2
Cc1ccccc1-c1cc(C(=O)NCc2cccs2)nn1CC1CC(c2cccc([N+](=O)[O-])c2)=NO1 (stereo not given),23.9
O=C(OCc1nnc(-c2ccc([N+](=O)[O-])cc2)o1)C1CCN(C(=O)c2ccc(F)cc2)CC1,-0.9
Cc1ccc(C(=O)Nc2ccc3c(c2)OCO3)cc1Cl,?
COc1ccc(S(=O)(=O)N2CCCCC2)cc1NC(=O)CCCOc1ccc(C)cc1,-1.8
COc1ccc(CN2CCN(C(=O)C3CCN(C(=O)Nc4ccccc4)CC3)CC2)cc1OC,-6.0
Cc1ccccc1CC(=O)N1CCN(S(=O)(=O)c2ccc(Cl)s2)CC1,4.5
COc1cc(OC)c(C(=O)OCC(=O)NC23CC4CC(CC(C4)C2)C3)cc1OC,-3.8
Cc1ccc(C)c(NC(=O)C(c2ccccc2)N2CCN(CC(=O)N3CCOCC3)CC2)c1 (stereo not given),2.5
N#CCCN(C(=O)CN1CCN(S(=O)(=O)c2ccc3c(c2)OCCO3)CC1)c1ccc(F)cc1,1.7
O=C1C=C(c2ccc3[nH]ccc3c2)C[C@@H](c2ccc(F)cc2)C1,67.6
O=C(COC(=O)C1CC1)Nc1ccc(S(=O)(=O)N2CCOCC2)cc1,5.2
C=CCC[C@H](Cc1ccc(F)cc1)C(=O)OC[C@H](C)NC(=O)[C@@H](CC=C)CC(=O)N[C@H](CO)Cc1ccccc1,0.4
CON(C)C(=O)CCN(Cc1ccccc1)C(=O)OC(C)(C)C,-3.4
Cc1cc(C(=O)NN=C(CCC(=O)O)c2cccs2)c(C)o1,5.1
CCc1ccc(C(=O)Nc2cc(S(=O)(=O)N3CCOCC3)ccc2N2CCOCC2)cc1,-0.3
COc1ncc(-c2ccc3c(c2)S(=O)(=O)c2cccc(C(=O)O)c2C3=O)cn1,-12.7
CN1CCN(C(=O)c2cccc(-c3cc(O)c4ncccc4c3)c2)CC1,0.5
CCCN(C1CCS(=O)(=O)C1)S(=O)(=O)c1cc(OC)ccc1OC (stereo not given),5.1
Cc1ccc(-c2cc(C(F)F)nc3sc4c(=O)[nH]cnc4c23)cc1,-1.7
Cn1cnc(C(=O)N2CCN(C(=O)OC(C)(C)C)CC2)c1C(=O)N1CCN(C(=O)OC(C)(C)C)CC1,3.3
COc1ccccc1CNC(=O)COC(=O)c1ccco1,-1.6
Cc1ccc(NC(=O)c2ccc(S(=O)(=O)N3CCCCC3)cc2)nc1,-5.1
COCCN(CC(=O)Nc1cccc(C)c1C)C(=O)Cc1cccs1,2.9
CSc1ccc(Cl)c(C(=O)OCC(=O)N2CCNC2=O)c1,55.6
O=C(COC(=O)Cc1ccc(Br)cc1)Nc1ccc(Cl)cn1,42.2
COc1cc(C(=O)COC(=O)c2ccncc2)cc(OC)c1OC,-2.7
CCCCN(C(=O)c1ccco1)c1c(N)n(CCC)c(=O)[nH]c1=O,-1.6
CC(=O)Nc1ccc(NC(=O)COC(=O)C2CCC(C(C)(C)C)CC2)cc1 (stereo not given),-3.6
C[C@H](CO)N1C[C@H](C)[C@@H](CN(C)C(=O)Nc2ccc3c(c2)OCO3)Oc2ccc(NC(=O)CCC(F)(F)F)cc2C1=O,1.8
C=CCC[C@H](Cc1ccc(F)cc1)C(=O)O[C@H](CNC(=O)[C@@H](CC=C)CC(=O)N(CCO)Cc1ccccc1)c1ccccc1,-1.9
O=C(Nc1nc(-c2ccccn2)cs1)c1ccc(F)c(S(=O)(=O)N2CCOCC2)c1,82.6
O=C(COC(=O)c1ccc[n+]([O-])c1)Nc1ccccc1OC(F)F,2.4
O=C(Nc1ccc(N2CCOCC2)cc1)c1ccc(Cl)c(S(=O)(=O)N2CCCC2)c1,-0.8
CC(C)COc1ccc(C(=O)NNC(=O)c2ccc(=O)[nH]c2)cc1,2.3
COc1ccc(S(=O)(=O)N2CCC(C(=O)N(C)Cc3ccc(C)o3)CC2)cc1OC,0.8
COC(=O)C(Cc1ccccc1)NC(=O)CNC(=O)c1ccc(Br)o1 (stereo not given),7.3
N#Cc1ccccc1OCC(=O)OCC(=O)c1c[nH]c2ccccc12,-2.0
COc1ccc(NC(=O)N(C)C[C@H]2Oc3ccc(NC(=O)Nc4ccc(C(F)(F)F)cc4)cc3C(=O)N([C@H](C)CO)C[C@@H]2C)cc1,1.7
CC(C)/C=C/CN1CCC(Oc2ccc(C(=O)N3CCCC3)cc2)CC1,?
CC(C)(C)OC(=O)C[C@H]1C/C=C\C[C@@H](CC(=O)N(CCO)Cc2ccccc2)C(=O)N2CCC[C@@H]2COC1=O,-2.7
CCc1cccc(C)c1NC(=O)CCCN1C(=O)NC(C)(C)C1=O,-0.2
COc1ccc(/C=C(/NC(=O)c2cccs2)C(=O)NC(C)(C)C)cc1OC,2.0
Cc1ccc(S(=O)(=O)CCC(=O)OCCOc2cccc(Br)c2)cc1,2.1
COc1ccc(-c2cn(Cc3ccc(C(N)=O)cc3)c(CCN)n2)cc1,-0.3
CN(C(=O)c1ccc(NC(=O)Cc2cccc(NC(=O)C3CCN(C(=O)C4CCCCC4)CC3)c2)cc1)C1CCCC1,1.9
C/C(=N/NS(=O)(=O)c1ccc(Cl)cc1)c1ccc2c(c1)OCO2,4.4
CCOc1ccccc1OCCC(=O)N1CCN(S(=O)(=O)c2ccccc2[N+](=O)[O-])CC1,-7.3

# Other structures:
SMILES,Mtb betalactam
O=C(CN1C(=O)NC(Cc2ccccc2)C1=O)Nc1ccc(OC(F)(F)F)cc1 (stereo not given),1.1
O=C(OCC(=O)N1CCN(c2ccccc2)CC1)c1ccncc1,-1.5
C/C(=N\Nc1nncc2ccccc12)c1ccc(O)cc1,0.6
CCCOc1cc(C)c(S(=O)(=O)NCc2cccs2)cc1C,0.9
O=C(NC1CCCCC1)C1CCCN1S(=O)(=O)c1ccc(F)cc1 (stereo not given),3.4
Cc1ccc(S(=O)(=O)N(C)C)cc1NC(=O)COC(=O)COc1ccc2c(C)cc(=O)oc2c1,-3.0
CC[C@@]1(C(=O)OC)N[C@H](CN(C)S(=O)(=O)c2ccc(C(C)(C)C)cc2)[C@@H]2C(=O)N(Cc3ccccc3)C(=O)[C@@H]21,-0.5
CC(CCN1CCN=C1N(C)C)c1ccccc1 (stereo not given),-0.4
CCN1C(=O)[C@H]2[C@@H](c3ccc(-c4ccc(F)cc4)c(OC)c3)N[C@@](Cc3ccccc3)(C(=O)OC)[C@H]2C1=O,1.2
COc1ccc([C@H]2CC(=O)C=C(c3cccc(NC(C)=O)c3)C2)cc1,11.7
O=C(CN1C(=O)NC2(CCCC2)C1=O)NCc1ccc(F)cc1,-2.4
C[C@@H]1COC(=O)[C@@H](Cc2ccc(F)cc2)C/C=C\C[C@H](CC(=O)N(CCO)Cc2ccccc2)C(=O)N1,-5.5
O=C(CN1CCOCC1)Nc1ccccc1F,-5.4
O=C(CSc1ncnc2ccccc12)N1CCNC1=O,-9.6
CC(=O)NCCC(=O)Nc1cc(S(=O)(=O)N2CCCCC2)ccc1N1CCCCC1,3.1
CCCN(C(=O)c1cc(C)ccc1C)c1c(N)n(Cc2ccccc2)c(=O)[nH]c1=O,-3.0
CCCCN(C(=O)C1=NN(c2ccccc2)C(=O)CC1)c1c(N)n(CC(C)C)c(=O)[nH]c1=O,-2.8
Cc1ccc(SCC(=O)NNC(=O)CNC(=O)c2ccc(Br)cc2)cc1,2.8

# Bioassay records: PubChem BioAssay, Southern Research Specialized Biocontainment Screening Center
